# FGF22 binding = binders of human FGF22 protein, primary screen, FGF22 synaptogenesis inhibitor project, biophysical, thermal shift, single point. calls only at 9.99 µM. 1.5% of 340,000 active. recombinant FGF22 thermal shift, SYPRO orange fluorescence; percent of sucrose octasulfate shift, DMSO zero. Fibroblast growth factor 22 (Homo sapiens), Q9HCT0. AID 651658, 2012;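 active = melting point raised past a set limit in the mean and every replicate; three in four hits are not shown here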
# Target sequence (Q9HCT0 whole entry, looked up): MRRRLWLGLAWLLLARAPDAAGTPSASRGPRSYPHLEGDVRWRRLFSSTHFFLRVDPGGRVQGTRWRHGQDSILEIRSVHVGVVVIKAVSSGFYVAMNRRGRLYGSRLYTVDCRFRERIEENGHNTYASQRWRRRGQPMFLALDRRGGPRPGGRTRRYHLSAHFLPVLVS
# rRNA inh HTS = reduced GFP signal of wild-type E. coli, primary screen, bacterial rRNA inhibitor project, GFP/RFP fluorescence, OD600, single point | GFP signal change (wild-type ribosome), % (test concentration not listed) | 1.6% of 350,000 active | E. coli WT GFP vs humanized-ribosome RFP mutants, 24 h; stronger effect = lower value; DMSO median 0, no signal -100;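 active = significant combined selectivity score with lowered wild-type GFP, culture density cut under 30%, mutant RFP and density less affected; inactive = any of these conditions unmet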; note: one replicate is shown; some compounds called inactive have numbers as strong as hits
# MLL AF4-AF9 inh = inhibitors of AF4 peptide binding to AF9, primary screen, biochemical, AlphaScreen, biotin-AF4 peptide, FLAG-AF9, single point | Protein AF-9 (Homo sapiens), P42568 | inhibition, % at 10 µM | 0.47% of 350,000 active | AID 651704, 2012;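 active = every replicate reaching a set inhibition limit, whatever the replicate mean, cut at about 25% in these data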;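 note: 0% = plate neutral control median and 100% = total signal loss; the record names both 10 and 1 µM as test concentration; the first replicate is given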
# Target sequence (P42568 whole entry, looked up): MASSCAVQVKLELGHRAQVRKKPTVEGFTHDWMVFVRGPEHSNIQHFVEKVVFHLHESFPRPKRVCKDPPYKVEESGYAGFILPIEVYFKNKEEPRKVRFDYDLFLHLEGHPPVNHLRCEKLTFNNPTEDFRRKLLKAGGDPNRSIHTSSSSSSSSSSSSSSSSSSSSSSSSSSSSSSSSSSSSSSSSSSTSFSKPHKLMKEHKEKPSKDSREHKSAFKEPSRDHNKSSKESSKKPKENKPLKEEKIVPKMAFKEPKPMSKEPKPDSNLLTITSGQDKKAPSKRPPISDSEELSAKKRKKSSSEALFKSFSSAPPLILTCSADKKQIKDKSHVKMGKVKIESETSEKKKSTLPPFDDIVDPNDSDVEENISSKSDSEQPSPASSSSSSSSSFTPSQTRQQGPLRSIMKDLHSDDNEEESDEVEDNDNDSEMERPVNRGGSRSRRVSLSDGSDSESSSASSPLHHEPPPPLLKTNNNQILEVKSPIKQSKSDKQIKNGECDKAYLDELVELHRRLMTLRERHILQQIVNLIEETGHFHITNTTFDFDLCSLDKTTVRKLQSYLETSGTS
# rRNA inh HTS OD600 = also measured in rRNA inh HTS; calls as there; OD600 change, %; measured here: OD600 growth;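 optical density of the mix in the first replicate; 0 = DMSO median and -100 = no signal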
# rRNA inh HTS RFP = second read-out of rRNA inh HTS, no call of its own (marks repeat the call); RFP signal change, %; measured here: RFP humanized mutant strains;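 first replicate; 0 = DMSO median and -100 = no signal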
# Active calls of the source: *; i = inactive; · = no result given; + = active, no number; & = joins results of further samples. A portion of the library; count on the stated rates, not on these rows.
SMILES,FGF22 binding,rRNA inh HTS,rRNA inh HTS OD600,rRNA inh HTS RFP,MLL AF4-AF9 inh
Cc1noc(C)c1NC(=O)N[C@@H]1C=C[C@H](CC(=O)NCCCN(C)C)O[C@H]1CO,i,0.6,0.6,-1.6,0.0
Cc1cn(CC(=O)NCc2ccc(N(C)C)cc2)c(=O)[nH]c1=O,·,6.7,17.7,-1.0,-3.9
COc1cccc(C(=O)Nc2ccc3c(c2)OC[C@H](C)N(CCc2ccccc2)C[C@H](C)[C@@H](OC)CN(C)C3=O)c1,i,-3.4,-1.8,-1.0,1.4
Cc1ccc(S(=O)(=O)Nc2ccc3c(c2)CC(=O)N([C@@H](C)CO)C[C@H](C)[C@H](CN(C)Cc2ccc4c(c2)OCO4)O3)cc1,i,0.2,-3.7,-1.3,0.0
Cc1ccc(S(=O)(=O)N2C[C@H]3C(=O)C[C@@H](c4ccc(Cl)cc4)N(S(=O)(=O)c4ccc(C)cc4)[C@H]3C[C@H]2c2ccc(Cl)cc2)cc1,i,1.2,13.4,-1.0,-2.8
CN(C)Cc1csc(Nc2ccc(C(=O)c3ccccc3)cc2)n1,i,0.4,-3.8,23.8,8.9
CN1CCN(C(=O)C[C@@H]2CC[C@@H]3[C@H](COC[C@H](O)CN3C(=O)Nc3cc(Cl)cc(Cl)c3)O2)CC1,i,-39.9,-41.9,3.0,-0.7
CC(C)(C)n1nnnc1C(c1ccccc1)N1CCN(c2ncccn2)CC1 (centres undefined),i,8.6,5.0,4.5,-0.6
C[C@H]1CN([C@@H](C)CO)S(=O)(=O)c2ccc(C#CCC3CCCC3)cc2O[C@@H]1CN(C)C(=O)c1ccccn1,i,-6.6,-50.9,33.2,8.0
CC(=O)c1ccc(Nc2nc(C(N)CC(C)C)cs2)cc1 (centres undefined),i,6.1,9.2,-0.1,2.1
C[C@@H](NC(=O)[C@@H]1[C@@H](CO)[C@@H]2Cn3c(cccc3=O)[C@@H]2N1CC1CCCC1)c1ccccc1,i,-3.9,-5.6,-3.2,-18.0
C[C@H]1CN([C@@H](C)CO)C(=O)CCCn2cc(nn2)CO[C@H]1CN(C)Cc1ccc(O)cc1,i,-1.9,0.0,0.1,0.1
C[C@@H]1CN([C@H](C)CO)C(=O)Cc2cc(NS(=O)(=O)c3cn(C)cn3)ccc2O[C@H]1CN(C)C(=O)Nc1cccc2ccccc12,i,3.5,1.8,2.4,-1.0
Cc1ccc(C2NC(=S)N3C(c4ccc(C)cc4)NC(=S)N23)cc1 (centres undefined),i,0.0,10.8,-4.6,1.5
CCC(=O)Nc1ccc2c(c1)C(=O)N(C)C[C@@H](OC)[C@@H](C)CN(Cc1ccccc1OC)[C@H](C)CO2,i,2.6,-0.9,-3.1,-5.7
C#CCNC(=O)C[C@H]1C[C@@]2(C(=O)OC)C(=C[C@H](C(C)C)O[C@@H]2C2CC2)N(Cc2ccccc2)C1=O,i,1.6,-11.3,-1.2,-0.3
C[C@@H]1CN([C@H](C)CO)C(=O)c2cc(C3=CCCC3)cnc2O[C@@H]1CN(C)C(=O)c1ccc(F)cc1,i,3.8,10.9,-3.0,-2.7
COc1cccc(C#Cc2ccc3c(c2)O[C@@H](CN(C)C(=O)CN2CCOCC2)[C@@H](C)CN([C@@H](C)CO)S3(=O)=O)c1,i,0.8,-5.7,17.3,3.3
Cc1cccc(C)c1NC(=O)C(c1ccncc1)n1c(=O)c(-c2ccccc2)nc2ccccc21 (centres undefined),i,2.9,3.2,1.8,2.3
C[C@H](CO)N1C[C@H](C)[C@@H](CN(C)C(=O)Nc2cccc3ccccc23)Oc2c(NC(=O)Nc3ccc(C(F)(F)F)cc3)cccc2C1=O,i,0.0,1.6,1.9,4.7
C[C@H]1CN([C@@H](C)CO)C(=O)c2cccc(NC(=O)c3nc4ccccc4s3)c2O[C@@H]1CN(C)S(=O)(=O)c1cn(C)cn1,i,-6.6,-5.0,-0.9,-3.3
CCCC(=O)Nc1ccc2c(c1)C(=O)N(C)C[C@H](OC)[C@@H](C)CN(C(C)=O)[C@H](C)CO2,i,2.1,12.7,-2.8,0.5
CC1(C(=O)NS(=O)(=O)c2cccc(F)c2)CCN1C(=O)C1CCCCC1 (centres undefined),i,12.9,27.6,2.9,2.2
CCCC(=O)N1CC2(C1)CN(C(=O)CN1CCOCC1)[C@H](CO)c1c2c2ccc(OC)cc2n1C,i,0.2,1.3,-3.5,0.2
COCC(=O)N(C)C[C@H]1Oc2cc(C#C[C@@H](C)O)ccc2S(=O)(=O)N([C@@H](C)CO)C[C@H]1C,i,4.0,8.2,-2.3,-3.0
C[C@@H]1CN([C@@H](C)CO)S(=O)(=O)c2ccc(C3=CCCCC3)cc2O[C@H]1CN(C)C(=O)C1CCCCC1,i,3.0,-5.0,1.5,11.0
CO[C@@H]1CN(C)C(=O)c2ccc(NS(=O)(=O)c3ccccc3C)cc2OC[C@H](C)N(C)C[C@H]1C,i,4.8,3.4,0.4,-1.5
C[C@H](CO)N1C[C@H](C)[C@H](CN(C)C(=O)Cc2cccnc2)Oc2ncc(C#CCc3ccccc3)cc2C1=O,i,0.1,-5.8,-0.8,-15.8
COc1ccc(CN(C)C[C@@H]2Oc3c(NC(=O)Nc4c(C)noc4C)cccc3C(=O)N([C@@H](C)CO)C[C@H]2C)cc1,i,1.2,7.3,-1.6,-0.4
CC(C)NC(=O)Nc1ccc2c(c1)CC(=O)N([C@H](C)CO)C[C@@H](C)[C@@H](CN(C)C(=O)Nc1ccc(F)cc1)O2,i,5.2,8.3,2.2,-11.0
O=C(O)[C@H]1[C@H](CO)[C@H]2Cn3c(ccc(/C=C/c4ccccc4)c3=O)[C@H]2N1Cc1ccc2c(c1)OCO2,i,-1.5,8.5,6.4,-41.2
C[C@H]1CN([C@@H](C)CO)S(=O)(=O)c2ccc(C#CC3(O)CCCC3)cc2O[C@H]1CN(C)C(=O)Cc1ccccc1,i,-3.9,-6.6,1.2,4.6
C[C@H](CO)N1C[C@H](C)[C@@H](CN(C)Cc2ccncc2)Oc2cc(C#CCN(C)C)ccc2S1(=O)=O,i,-5.6,-9.6,-0.4,1.9
O=C(CC1CC1)N[C@@H]1CC[C@H](CCNS(=O)(=O)c2ccc(F)cc2)O[C@H]1CO,i,3.8,2.0,0.5,-2.1
C[C@@H]1CN([C@@H](C)CO)S(=O)(=O)c2ccc(C#CCN(C)C)cc2O[C@@H]1CN(C)S(C)(=O)=O,i,2.4,14.0,-2.9,-0.6
C[C@H]1CN([C@@H](C)CO)C(=O)c2cc(NS(=O)(=O)c3ccc(F)cc3)ccc2O[C@@H]1CN(C)C(=O)Nc1ccc(F)cc1,i,-1.7,6.0,-2.6,-3.1
CN(C)C(=O)c1cccc(-c2ccc([C@H]3[C@H](CO)N4CCCCN(CC5CCOCC5)C[C@@H]34)cc2)c1,i,8.5,-1.2,-0.1,4.9
O=C(Nc1cccc(C(F)(F)F)c1)c1csc(COCCO)n1,i,-1.5,5.7,4.3,-8.6
CC(=O)N1[C@@H](CO)[C@H](c2ccccc2)C12CN(C(=O)c1ccc3c(c1)OCO3)C2,i,3.1,6.8,-0.1,-1.0
O=CC(=Cc1ccccc1)c1ccccc1,i,-5.6,-11.3,-2.6,2.9
C[C@H](CO)N1C[C@H](C)[C@H](CN(C)CC2CC2)Oc2ccc(NC(=O)C3CCCCC3)cc2CC1=O,i,1.5,5.0,-4.1,-0.4
CN(C)C(=O)C[C@@H]1CC[C@@H](NS(=O)(=O)c2ccccc2)[C@H](CO)O1,i,1.1,4.4,-0.1,0.5
CCCC#Cc1ccc([C@@H]2[C@@H](C#N)N(C(=O)C3CCCCC3)[C@@H]2CO)cc1,i,-3.1,-44.3,7.8,-2.5
O=C(C[C@H]1CC[C@@H](NC(=O)C2CC2)[C@@H](CO)O1)NCc1ccccc1Cl,i,2.4&8.4,5.9&5.4,1.9&1.1,0.9&-10.6
C[C@@H]1CCCCO[C@H](CN(C)C(=O)CCC(F)(F)F)[C@H](C)CN([C@H](C)CO)C(=O)c2cc(NC(=O)NC3CCCCC3)ccc2O1,i,-2.0,-6.0,-1.4,0.8
O=C(Cc1ccccc1F)Nc1cc(S(=O)(=O)N2CCCCC2)ccc1N1CCOCC1,i,-6.1,-17.3,-2.4,2.6
CN1CCN(C(=O)C[C@H]2CC[C@@H]3[C@H](COC[C@@H](O)CN3Cc3cccc(F)c3)O2)CC1,i,-1.4,6.9,-2.7,-0.1
CC(C)CC#Cc1cnc2c(c1)C(=O)N([C@@H](C)CO)C[C@@H](C)[C@H](CN(C)S(=O)(=O)c1cn(C)cn1)O2,i,-0.4,-6.7,-2.4,-1.0
COC(=O)C[C@@H]1C=C[C@H](NC(=O)Cc2ccccn2)[C@@H](CO)O1,·,12.8,10.3,3.9,-2.3
CN(C)C(=O)c1ccc(-c2ccc([C@H]3[C@H]4CN(S(C)(=O)=O)CCCCN4[C@H]3CO)cc2)cc1,i,3.7,7.6,3.7,34.2*
C[C@@H]1CN([C@@H](C)CO)C(=O)c2cc(-c3ccncc3)cnc2O[C@@H]1CN(C)C(=O)c1cccc(F)c1,i,1.1,-12.1,-2.1,-1.2
C[C@H]1CN([C@@H](C)CO)C(=O)Cc2cc(NC(=O)c3ccncc3)ccc2O[C@H]1CN(C)C(=O)Nc1ccc2c(c1)OCO2,i,3.8,25.4,0.6,-1.7
COc1ccc(NC(=O)Nc2cccc3c2O[C@@H](CN(C)Cc2ccc(-c4ccccc4)cc2)[C@H](C)CN([C@@H](C)CO)C3=O)cc1,i,1.6,6.0,-1.3,0.7
O=c1[nH]c(CN2CCCCC2)ccc1O,i,4.6,11.3,-2.4,-3.5
O=C(Cc1cccnc1)N[C@H]1CC[C@H](CCn2cc(-c3ccccc3F)nn2)O[C@H]1CO,+,2.2,-1.9,-3.0,1.4
C[C@@H]1CN([C@H](C)CO)C(=O)c2cccc(NC(=O)c3ccc(-c4nccs4)cc3)c2O[C@@H]1CN(C)S(=O)(=O)c1ccc(Cl)cc1,i,3.4,1.7,-1.5,-1.1
COCC(=O)N1CC2(C1)CN(Cc1cccc(OC)c1)[C@@H](CO)c1c2c2ccc(OC)cc2n1C,i,-0.4,6.8,-1.3,2.0
O=C(C[C@@H]1CC[C@@H](NC(=O)Nc2cccc(F)c2)[C@H](CO)O1)NCC1CCCCC1,i,-6.6,-5.6,-1.2,-1.3
CO[C@H]1CN(C)C(=O)c2cc(NC(=O)NC(C)C)ccc2OC[C@@H](C)N(Cc2ccccn2)C[C@@H]1C,i,0.9,-1.9,-0.5,-1.6
CC(=O)NC(C)(c1ccccc1)c1nc(-c2cnc3ccccc3c2)cs1 (centres undefined),i,-12.6,-19.2,-0.8,-2.3

# More entries:
SMILES,FGF22 binding,rRNA inh HTS,rRNA inh HTS OD600,rRNA inh HTS RFP,MLL AF4-AF9 inh
COCC(=O)Nc1ccc2c(c1)OC[C@H](C)N(Cc1cc(F)ccc1F)C[C@@H](C)[C@@H](OC)CN(C)C2=O,i,-3.3,-5.8,5.8,0.9
Cc1ccc2nc(CN(C)C(=O)[C@H]3O[C@@H](n4ccc(N)nc4=O)[C@H](O)[C@@H]3O)[nH]c2c1,i,8.3,5.3,1.9,-0.4
Cc1ccc(CNc2nc3cc(-c4ccccc4)sc3c(=O)n2C)c(C)c1,i,3.3,13.9,-0.8,-5.6
COc1ccc(S(=O)(=O)Nc2ccc3c(c2)C(=O)N([C@@H](C)CO)C[C@H](C)[C@H](CN(C)S(C)(=O)=O)OCCCC[C@@H](C)O3)cc1,i,-2.9,-10.1,3.3,-2.5
